Assay outcomes (PubChem)
KCNQ2 inh: KCNQ2 potassium channel inhibitors, primary screen, cell-based, CHO-K1, FluxOR thallium flux, B-score (AID 2156); B-score at 10 µM; 310,000 compounds, 1.1% hits; 20 min; active compounds read low; only compounds with negative scores are shown here; some inactives read as strong as hits;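 active means fluorescence ratio B-score at most minus 3 library SDs, with starting brightness B-score within 2 library SDs, cut at about -5.5 in these data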
Target sequence (O88943 whole entry, looked up): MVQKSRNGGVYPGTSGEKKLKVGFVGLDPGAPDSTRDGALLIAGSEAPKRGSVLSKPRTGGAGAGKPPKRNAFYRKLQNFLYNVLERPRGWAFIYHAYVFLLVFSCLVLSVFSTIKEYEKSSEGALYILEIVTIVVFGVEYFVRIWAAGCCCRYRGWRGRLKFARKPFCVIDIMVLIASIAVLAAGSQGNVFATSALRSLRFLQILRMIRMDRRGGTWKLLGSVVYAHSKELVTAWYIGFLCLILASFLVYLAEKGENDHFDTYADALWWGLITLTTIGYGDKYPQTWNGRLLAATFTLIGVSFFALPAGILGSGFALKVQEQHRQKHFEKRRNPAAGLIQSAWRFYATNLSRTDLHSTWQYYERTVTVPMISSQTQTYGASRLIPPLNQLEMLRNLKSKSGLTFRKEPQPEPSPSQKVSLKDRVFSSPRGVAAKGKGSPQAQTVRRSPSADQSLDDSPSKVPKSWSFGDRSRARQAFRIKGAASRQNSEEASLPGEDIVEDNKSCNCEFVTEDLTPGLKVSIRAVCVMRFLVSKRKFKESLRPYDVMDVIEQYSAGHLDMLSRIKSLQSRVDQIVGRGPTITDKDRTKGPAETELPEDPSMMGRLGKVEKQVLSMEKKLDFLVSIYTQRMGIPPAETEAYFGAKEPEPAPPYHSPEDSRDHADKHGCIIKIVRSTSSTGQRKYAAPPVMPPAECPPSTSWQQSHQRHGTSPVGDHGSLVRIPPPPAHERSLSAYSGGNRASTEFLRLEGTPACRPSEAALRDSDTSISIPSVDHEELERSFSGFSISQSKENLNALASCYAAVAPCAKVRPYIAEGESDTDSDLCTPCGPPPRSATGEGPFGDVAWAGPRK
KCNQ2 inh baseline: second read-out of KCNQ2 inh, no call of its own (marks repeat the call); B-score; measured here: initial fluorescence intensity artifact check;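 brightness before thallium and not channel activity; 0 = typical well and far values either way flag optical interference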
An asterisk follows results filed as active; i = inactive. Some of the compounds tested; rates above refer to the full screens.

Start of the data: the first 6 entries, ahead of the listing:
KCNQ2 inh | KCNQ2 inh baseline | SMILES
i | 1.37 | CC(OC(=O)C1=COCCO1)C(=O)NC(C)c1ccc(Cl)cc1Cl (configuration not stated)
i | 1.64 | Cc1ccc(NC(=O)COc2ccc(Br)cc2C)cc1
i | -0.17 | COc1cccc(Cn2cc(/C=N/NC(=O)c3cc(O)cc(O)c3)c3ccccc32)c1
i | 0.62 | COC(=O)[C@H](Cc1ccccc1)NC(=O)N1Cc2ccccc2C[C@H]1C(=O)OC
i | 0.66 | COc1ccccc1C(=O)O/N=C(\c1ccccc1)c1ccncc1
i | -0.1 | Cc1ccc(C(=O)N2CCN(CCNC(=O)C(=O)NCc3ccc(Cl)cc3)CC2)cc1

The whole of this part, previewed entries included:
KCNQ2 inh | KCNQ2 inh baseline | SMILES
i | 1.37 | CC(OC(=O)C1=COCCO1)C(=O)NC(C)c1ccc(Cl)cc1Cl (configuration not stated)
i | 1.64 | Cc1ccc(NC(=O)COc2ccc(Br)cc2C)cc1
i | -0.17 | COc1cccc(Cn2cc(/C=N/NC(=O)c3cc(O)cc(O)c3)c3ccccc32)c1
i | 0.62 | COC(=O)[C@H](Cc1ccccc1)NC(=O)N1Cc2ccccc2C[C@H]1C(=O)OC
i | 0.66 | COc1ccccc1C(=O)O/N=C(\c1ccccc1)c1ccncc1
i | -0.1 | Cc1ccc(C(=O)N2CCN(CCNC(=O)C(=O)NCc3ccc(Cl)cc3)CC2)cc1
i | -0.32 | Cc1cc(=O)[nH]c2c1cnn2C(C)c1ccccc1 (configuration not stated)
i | 0.08 | CC1(C)N=C(N)NC(Nc2ccccc2Cl)=N1
i | 1.93 | COc1cc(/C=N/NC(=S)Nc2cccc(Cl)c2C)ccc1OCC(=O)N1CC(C)OC(C)C1 (configuration not stated)
i | 1.51 | CCOC(=O)c1cccc(NC(=O)CN(c2ccc(C)cc2)S(=O)(=O)c2c(C)noc2C)c1
i | -0.54 | COc1ccc(N2C(=O)CC(Sc3nnc(-c4ccccc4)o3)C2=O)cc1 (configuration not stated)
i | 0.83 | O=C(Nc1ccc2c(c1)OCCO2)N1CCN(c2ccc(F)cc2)CC1
i | 1.11 | COC(=O)c1c(NC(=O)c2ccccc2)sc(C(=O)c2ccccc2)c1C
i | -0.05 | CSc1nc(-c2ccccc2)c(C#N)c(=O)n1C
i | 1.16 | CCc1cc2c(C)cc(=O)oc2cc1Oc1ncccc1[N+](=O)[O-]
i | 2.7 | CC(=O)C1=C(C)Nc2ncnn2C1c1ccccc1F (configuration not stated)
i | 0.36 | CC1CCCCN1CCCNC(=O)c1ccc(NC(=O)C2=CSCCO2)cc1 (configuration not stated)
i | -1.56 | Cc1c(C(=O)Nc2cccc(Cl)c2)oc2ccc(S(=O)(=O)N3CCC4(CC3)OCCO4)cc12
i | 1.18 | COc1ccccc1-n1c(C)nnc1SCC(=O)NCc1ccccc1
i | 2.49 | O=C(O)CCCN1C(=O)NC2NC(=O)NC21 (configuration not stated)
i | 0.32 | CCc1ccc(CN(C)Cc2nc(Cc3cccc(C(F)(F)F)c3)no2)nc1
i | -1.51 | CC(=O)OCCN(CCCn1c(-c2ccncc2)nc2ccccc21)c1nc(-c2ccc(C)cc2)cs1
i | 0.43 | COc1ccc(NC(=O)N2CCCC2C(=O)NCCc2ccccc2)cc1 (configuration not stated)
i | -0.52 | CC(=O)c1ccc(NC(=O)Cn2cnc(S(=O)(=O)N3CCCCC3)c2)cc1
i | -0.26 | CCN(CC)c1ccc(/C=N/N2CCN(Cc3ccccc3Cl)CC2)cc1
i | 0.32 | O=C(CSc1nc2cc(Cl)ccc2c(=O)n1Cc1ccco1)Nc1ccc(S(=O)(=O)N2CCOCC2)cc1
i | -1.35 | CCOc1ccc(NS(=O)(=O)c2ccc(C(=O)N3CCCCCC3)cc2)cc1
i | -0.18 | Cc1cc(N2C(=O)C(O)=C(C(=O)c3ccc(C)o3)C2c2ccc(OCc3ccccc3)cc2)no1 (configuration not stated)
i | -0.06 | O=C(NC(=S)Nc1ccccc1N1CCOCC1)c1ccc(-c2cccc(Cl)c2)o1
i | 0.19 | CCCc1nc2nc(C)c(NS(=O)(=O)c3ccc4c(c3)CCCC4)c(=O)n2[nH]1
i | 0.25 | CCC[C@@H]1C[C@@]1(CCC)[C@@H](NC(=O)c1ccccc1)c1ccc(C(=O)OC)cc1
i | -0.02 | COc1cccc(/C=N/NC(=O)CC(=O)NCCc2ccccc2)c1OC
i | -1.51 | Cc1ccc(C(=O)OCC(=O)N(C)c2ccccc2)cc1C
i | -0.81 | C=CCn1c(CSCc2ccccc2)nnc1SCC(=O)N1CCN(c2ccccc2)CC1
i | 1.4 | O=C(Cc1c(F)cccc1Cl)Nc1ccccc1N1CCCCC1
i | 0.38 | O=C(CSc1nnc(NC(=O)c2ccccc2)s1)NC1CCCC1
i | 0.82 | COc1ccccc1NS(=O)(=O)c1cccc(C(=O)N/N=C2\CC(=O)CC(C)(C)C2)c1
i | -0.73 | CCCCC[C@H]1CN(Cc2ccc(OC)cc2)C(=O)[C@@H]1CC(=O)NCc1ccccc1
i | -1.44 | CN(C)C(CNC(=O)CSc1nc2ccccc2c(=O)n1Cc1ccco1)c1ccccc1 (configuration not stated)
i | 1.24 | COc1cc(N(C(=O)Cc2cccs2)C(C(=O)NC2CCCCC2)c2ccc(C)cc2)ccc1-n1cnnn1 (configuration not stated)
i | 3.45 | COCCN(C(=O)CNC(=O)c1ccco1)C(C(=O)NC1CCCC1)c1cccc(OC)c1 (configuration not stated)
i | -0.23 | O=C(/C=C/c1cccc(Br)c1)NCC1CCCCC1
i | 0.74 | CC(Oc1cc2oc(=O)c3c(c2cc1Cl)CCCC3)C(=O)NCC1CCC(C(=O)O)CC1 (configuration not stated)
i | 2.98 | COc1ccc(CCNC(=O)CCc2cc(OC)c(OC)c(OC)c2)cc1OC
i | 0.89 | Cc1nonc1OCCn1nnnc1N
i | -0.58 | Cc1c(N(C)S(=O)(=O)c2cc(C(=O)Nc3ccccn3)ccc2Cl)c(=O)n(-c2ccccc2)n1C
i | 1.01 | O=C(COc1ccccc1)Nc1cc(C(F)(F)F)ccc1N1CCCC1
i | -0.01 | CCSc1nc2c(c(=O)n1-c1ccc(F)cc1)SCC2
-5.77* | -1.11* | O=C(CCCCCN1C(=O)[C@@H]2Cc3ccccc3CN2C1=O)Nc1cccc(F)c1
i | -0.81 | Cc1ccc(/C=C2/C(=O)N=C(N)N2C)s1
i | 0.1 | CC(=O)O[C@H]1C[C@@H]2CC[C@@H]3[C@H](CC[C@@]4(C)[C@H]3C[C@H]([N+]3(C)CCCCC3)[C@@H]4OC(C)=O)[C@@]2(C)C[C@@H]1N1CCCCC1
i | 0.09 | COc1ccc(-c2cc(C(=O)Nc3cc(C)ccc3O)no2)cc1
i | 0.55 | CCCCCC1CC(COc2ccccc2)OC1=O (configuration not stated)
i | -1.94 | COc1cc2c(cc1OC)C(c1ccccc1)N(C(=O)CSCC(=O)O)CC2 (configuration not stated)
i | -0.33 | N#CC1=C(N)N(c2ccccc2)C2=C(C(=O)CCC2)C1c1ccccc1 (configuration not stated)
i | 0.18 | COc1ccc(CCNC(=S)Nc2cccc3ccccc23)cc1
i | -0.86 | CC(C)C[C@H](NC(=O)c1nc[nH]c1C(=O)N1CCNCC1)C(=O)OCc1ccccc1
i | 1.17 | C=CCN(c1ccc(C(=O)Nc2ccc3c(c2)OCO3)cc1)S(C)(=O)=O
i | -1.31 | O=C(CSc1nnnn1-c1cccc2ccccc12)Nc1ccc(N2CCOCC2)c(Cl)c1
i | 0.46 | Cc1nn(C)c(C)c1NC(=O)/C(C#N)=C\N(C)C

Single records, as listed above. Order of values: KCNQ2 inh | KCNQ2 inh baseline
CC(C)C[C@H](NC(=O)c1nc[nH]c1C(=O)N1CCNCC1)C(=O)OCc1ccccc1 across the screens: i | -0.86
COc1ccc(-c2cc(C(=O)Nc3cc(C)ccc3O)no2)cc1 across the screens: i | 0.09
N#CC1=C(N)N(c2ccccc2)C2=C(C(=O)CCC2)C1c1ccccc1 (configuration not stated) across the screens: i | -0.33
C=CCN(c1ccc(C(=O)Nc2ccc3c(c2)OCO3)cc1)S(C)(=O)=O across the screens: i | 1.17
Cc1ccc(/C=C2/C(=O)N=C(N)N2C)s1 across the screens: i | -0.81

More records follow:
KCNQ2 inh | KCNQ2 inh baseline | SMILES
i | -1.79 | COC(=O)c1scc(C)c1NC(=O)CSc1ccc(Cl)cc1
i | -0.12 | Cc1csc(SCC(=O)N(C)c2c(N)n(Cc3ccccc3)c(=O)[nH]c2=O)n1
i | 0.61 | O=C(NCc1ccc(F)cc1)c1noc2c1CCCCC2
i | 1.62 | Cc1ccc(C(=O)O/N=C(\c2ccccc2)c2ccncc2)cc1
i | -1.2 | O=C(CN1CCOCC1)Nc1nc2ccc(Br)cc2s1
i | 0.36 | O=C(Oc1ccccc1)c1cccc2cccnc12
i | 0.46 | Cc1ccccc1/C=N/NC(=O)c1sccc1C
i | -1.65 | CCn1c(=O)c(C(=O)NCCc2ccc(OC)c(OC)c2)c(O)c2ccccc21
i | 0.47 | Cc1ccc(C(C(=O)NC2CCCCC2)N(CC2CCCO2)C(=O)CNC(=O)c2ccco2)cc1 (configuration not stated)
i | 1.53 | O=C(Nc1nnc(CC(=O)N2CCOCC2)s1)C1COc2ccccc2O1 (configuration not stated)
i | -0.11 | O=C(NCCc1ccccc1)[C@@H]1CC=C[C@@H]2CCN(C3CCCCC3)C(=O)[C@@H]21
i | 0.48 | Cc1cccc(C)c1OCC(=O)Nc1cccc(C(=O)O)c1
i | -0.23 | CS(=O)(=O)N1CCN(c2ccccc2NC(=O)c2cccc3ccccc23)CC1
i | -1.46 | CC1CCCCC1NC(=O)COn1nnc2ccc(Cl)cc21 (configuration not stated)
i | -1.73 | COC(=O)c1ccc(NC(=O)c2cccc(C)c2)cc1
i | 0.77 | COC(=O)Nc1sc2c(c1C(=O)NC1CC1)CCCCCC2
i | 1.07 | Cc1c(C)c2ccc(OC(C)C(=O)N[C@@H](Cc3c[nH]c4ccccc34)C(=O)O)c(C)c2oc1=O (some centres not stated)
i | -2.28 | CCn1cc(/C=C(\NC(=O)c2ccccc2Cl)C(=O)N2CCOCC2)c2ccccc21
i | -2.28 | COc1ccc(Cl)cc1C(=O)Nc1ccc(Br)c(C)n1
i | 0.98 | CCOC(=O)N1CCN(C(=O)c2ccc3c(=O)n(-c4ccccc4F)c(=S)[nH]c3c2)CC1
i | -1.59 | CCOC(=O)c1c(NC(=O)CN2CCN(c3ccc(Cl)cc3)CC2)sc(C)c1C
i | 2.13 | Cc1cc(C)c(NC2=NCC(=O)N2C2CCCCC2)c(C)c1
i | -0.63 | Cc1ccc(C(=O)c2oc3ccccc3c2NC(=O)c2cc(-c3ccccc3O)n[nH]2)cc1
i | 1.59 | O=S(=O)(Nc1ncn[nH]1)c1ccc2ccccc2c1
i | -0.45 | CCOC(=O)Cn1c(=NC(=O)CSC(C)=O)sc2cc(OC)ccc21
i | 1.07 | Cc1ccc(S(C)(=O)=O)cc1S(=O)(=O)Nc1ccccc1
i | -0.39 | Nc1nc(NC(=O)CCC(=O)O)nn1-c1ccccc1
i | -0.63 | CCc1nc2ccccc2c(C(=O)Nc2cccc(C)c2)c1C
i | 0.08 | COc1ccc(N=C(NN)c2ccc3ccccc3n2)cc1
i | 1.3 | CCO[C@H]1OC(C(=O)N2CCN(Cc3ccccc3)CC2)=C[C@@H](c2cn(C(C)=O)c3ccccc23)[C@@H]1CCCO
i | -0.04 | COC(=O)CN1C(c2ccccc2)=Nc2ccc(Cl)cc2C1c1ccccc1 (configuration not stated)
i | -1.79 | O=C(NCC1CCCO1)C(c1cccs1)N(C(=O)c1ccc(-c2ccccc2)[nH]1)C1CCCC1 (configuration not stated)
i | -0.7 | C/C(=N\NC(=O)c1cccc2ccccc12)c1cccnc1
i | -1.19 | C=CCNC(=S)N(C1CCCCC1)C1CCCCC1
i | 1.04 | CCCCc1cc(=O)oc2cc(C)cc(OCC(=O)NC(Cc3ccc(Cl)cc3)C(=O)O)c12 (configuration not stated)
i | -1.04 | COc1ccc(C(C)=O)cc1COC(=O)CSCC(=O)Nc1ccc(C)cc1
i | -2.04 | Cc1ccc(S(=O)(=O)N2CCC(C(=O)OC(C)C(=O)NC(N)=O)CC2)cc1C (configuration not stated)
i | -1.77 | CC(=O)c1c(O)cc(=O)n(-c2ccccc2)c1-c1ccc(Cl)cc1
i | 0.2 | CCOc1cc(NS(=O)(=O)c2ccc(Cl)cc2)c(OCC)cc1NC(=O)CC(C)C
i | -1.43 | COC(=O)CCN(C(=O)c1ccc(N2CCCCC2)c([N+](=O)[O-])c1)c1ccccn1
i | -1.39 | Cc1ccccc1C(=O)N/N=C1/SCC(=O)N1Cc1ccc2c(c1)OCO2
i | -2.96 | COc1ccc(C)cc1NC(=O)C(Sc1nncn1C)c1ccccc1 (configuration not stated)
-6.23* | 0.63* | Cc1cc(C)cc(NCc2cc3c(cc2[N+](=O)[O-])OCO3)c1
i | 1.13 | Nc1cnn(Cc2ccccc2F)c1
i | -0.21 | CC(Cc1c[nH]c2ccccc12)NC(N)=O (configuration not stated)
i | 0.2 | CC(C)CN(C)C(=O)CCc1nnc(Cc2ccc(-c3ccccc3)cc2)o1
i | 0.77 | CCn1c(=S)ccc2ccc(OC)cc21
i | 0.02 | CC(NC(=O)c1cccc(Cn2cc([N+](=O)[O-])cn2)c1)c1ccc(C(C)(C)C)cc1 (configuration not stated)
i | -1.46 | CCc1ccccc1NC(=O)Nc1ccon1
i | -1.02 | CC(C)=C1C2CCC1C1C(=O)N(c3nc(-c4ccc(F)cc4)c(C)s3)C(=O)C21 (configuration not stated)
i | 0.89 | O=C(Cn1cnc2c(cnn2-c2ccc(Cl)cc2)c1=O)NCCc1ccccc1
i | 1.54 | COCCn1c(SCC(=O)Nc2ccccc2F)nc2c([nH]c3ccccc32)c1=O
i | 0.06 | Oc1ccc(C[C@H]2CNCCN2CCC23CC4CC(CC(C4)C2)C3)cc1
i | 0.6 | CC(C)C(NS(=O)(=O)c1ccc2c(c1)Cc1cc(S(=O)(=O)NC(C(=O)O)C(C)C)ccc1-2)C(=O)O (configuration not stated)
i | 0.05 | CCOC(=O)Cn1cc(C#N)c(=O)[nH]c1=O
i | 0.93 | O=C(N/N=C/c1c(F)cccc1Cl)c1ccc(Cn2cc(Br)cn2)o1
